# RanGTP-Imp inh: inhibitors of RanGTP-importin-beta interaction, primary screen, biochemical, FRET, CFP-Ran, YFP-importin-beta, homogeneous; actives 1.1% (n = 300,000); inhibition, % (test concentration not listed); cell-free CFP-Ran/YFP-importin-beta FRET ratio;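 active = most replicates above 15%; inconclusive = exactly half above 15%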;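 note: 0% = DMSO wells and 100% = Ran loaded with GDP instead of GTP; wells of about 40 µL received 100 nL stock; the first replicate is given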
# HNF4A DNA FP: change in binding of human HNF4 alpha to DNA | HNF4a-FITC DNA binding, fluorescence polarization, 1 h | activity change, % at 10 µM | actives 0.3% (n = 360,000) | AID 1224865; in the data active = activity change above about 30%, passing the limit was not always enough;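 note: controls were the assay level and a saturating level of protein; the project sought stronger binding though the title names inhibitors; some compounds called inactive have numbers as strong as hits; positive values seem to mean higher polarization but the record does not say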
# Target sequence (P41235 whole entry, looked up): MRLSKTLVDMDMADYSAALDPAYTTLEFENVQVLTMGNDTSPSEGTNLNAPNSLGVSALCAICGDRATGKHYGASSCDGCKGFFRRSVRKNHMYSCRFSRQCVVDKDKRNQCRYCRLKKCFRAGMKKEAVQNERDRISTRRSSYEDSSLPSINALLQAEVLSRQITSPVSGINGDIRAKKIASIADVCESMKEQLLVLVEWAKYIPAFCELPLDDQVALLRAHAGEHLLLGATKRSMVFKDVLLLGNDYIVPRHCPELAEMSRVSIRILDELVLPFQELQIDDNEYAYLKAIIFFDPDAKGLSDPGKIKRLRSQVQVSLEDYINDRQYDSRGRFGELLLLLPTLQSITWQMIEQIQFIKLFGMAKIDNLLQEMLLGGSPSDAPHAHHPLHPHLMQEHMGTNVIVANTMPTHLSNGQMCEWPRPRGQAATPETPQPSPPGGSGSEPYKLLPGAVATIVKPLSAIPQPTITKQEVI
# Vif A3G: inhibitors of Vif binding to APOBEC3G peptide, primary screen, biochemical, TR-FRET, GST-Vif 1-94, biotin-A3G peptide, dose response retest (AID 1117319); actives 0.57% (n = 260,000); TR-FRET GST-Vif / biotin-A3G peptide binding; higher % means a stronger effect; test concentration not given here; strong numbers were not always called active; one-dose inhibition, %; IC50 in µM for titrated hits;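 active = above the screen mean plus three standard deviations and confirmed in dose response; inconclusive = results disagree or hit not tested in dose response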;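 note: Vif residues 1-94 fused to GST binding biotinylated APOBEC3G peptide 110-148; 0% = full assay without inhibitor and 100% = GST in place of GST-Vif; retest series ran down from 100 µM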
# UCH37 DUB inh: human UCH37 deubiquitinating enzyme inhibition | purified proteasome/UCH37, Ub-AMC cleavage fluorescence | inhibition, % (concentration not given with the values) | Q9Y5K5 | actives 0.33% (n = 330,000) | AID 588478;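 active = mean of two replicates above 20%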;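 note: 0% = compound-free wells with enzyme and 100% = wells lacking proteasome; stock transfer was 100 nL into about 20 µL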
# Target sequence (Q9Y5K5 whole entry, looked up): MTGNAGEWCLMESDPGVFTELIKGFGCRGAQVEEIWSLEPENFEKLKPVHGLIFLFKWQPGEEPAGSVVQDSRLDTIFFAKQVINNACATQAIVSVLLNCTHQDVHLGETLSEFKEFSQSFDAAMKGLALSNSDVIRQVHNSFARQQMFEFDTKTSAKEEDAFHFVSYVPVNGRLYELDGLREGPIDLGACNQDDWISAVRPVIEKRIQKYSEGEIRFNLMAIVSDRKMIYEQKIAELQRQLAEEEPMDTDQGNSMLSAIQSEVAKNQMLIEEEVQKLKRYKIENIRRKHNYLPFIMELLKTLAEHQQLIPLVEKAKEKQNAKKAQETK
#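 System: Proteasome-associated human UCH37 deubiquitinase; Input: 0.15 nM proteasome in added enzyme buffer; Also added: Ub-AMC substrate from 1 µM stock; Incubation: 30 min compound-proteasome preincubation then 25 min substrate reaction, room temperature; Detection: fluorescence, ex 355 nm, em 460 nm; Read-out: % inhibition of Ub-AMC cleavage fluorescence; Benchmarks: no-proteasome and no-compound wells.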
# Ecoli growth: E. coli growth inhibition | Escherichia coli growth, OD600, 23 h; hits give low values | OD600 absorbance (concentration not given with the values) | AID 1053175 | actives 0.21% (n = 330,000);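 active = OD600 absorbance below the run mean of sample wells minus 3.6 SD, in any replicate, cut at about 0.56 in these data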;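 note: stock transfer was 300 nL into about 60 µL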
# FGF22 binding: shifts melting point of recombinant human FGF22. Q9HCT0. recombinant FGF22 thermal shift, SYPRO orange fluorescence; percent of sucrose octasulfate shift, DMSO zero. calls only at 9.99 µM. actives 1.5% (n = 340,000). AID 651658;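 active = melting point raised past a set limit in the mean and every replicate; inconclusive = no clear call; three in four hits are not shown here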
# Target sequence (Q9HCT0 whole entry, looked up): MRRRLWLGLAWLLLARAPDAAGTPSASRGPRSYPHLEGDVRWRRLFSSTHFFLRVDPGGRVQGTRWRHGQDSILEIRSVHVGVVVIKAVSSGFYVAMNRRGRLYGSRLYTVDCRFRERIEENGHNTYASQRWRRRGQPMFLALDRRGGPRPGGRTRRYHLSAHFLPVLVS
# AF4-AF9 inh: blocks AF4 peptide binding to human AF9; AlphaScreen, biotin-AF4 peptide binding to FLAG-AF9; inhibition, % at 10 µM; actives 0.47% (n = 350,000); AID 651704;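 active = every replicate reaching a set inhibition limit, whatever the replicate mean, cut at about 25% in these data; inconclusive = mean inhibition reaches that limit but some replicates miss it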;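 note: 0% = plate neutral control median and 100% = total signal loss; the record names both 10 and 1 µM as test concentration; the first replicate is given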
# * hit, by the source's call; i = inactive; ? = inconclusive; / = not tested or not shown; & = joins results of further samples. These rows are one share of the data; rates above refer to the full screens.
item	SMILES	RanGTP-Imp inh	HNF4A DNA FP	Vif A3G	UCH37 DUB inh	Ecoli growth	FGF22 binding	AF4-AF9 inh
1	COc1ccccc1NC(=O)/C=C\c1ccco1	0.3	4.1	11%	3.5	0.66	i	1.4
2	COC(=O)c1cc(S(=O)(=O)NCc2ccccc2OC)cn1C	3.2	16	/	0.5	0.7	i	-3.3
3	OC(c1ccc(F)cc1)(C1CCCCC1)C(CN1CCOCC1)c1ccccc1 (stereo not drawn)	-5.4	-1.1	/	-2.9	0.67	i	6.6
4	O=C1NC(C2CC3C=CC2C3)Nc2ccccc21 (stereo not drawn)	/	2.9	0%	/	/	i	-3.2
5	CCN(CC(=O)Nc1ccc(OC)c(Cl)c1)CC(=O)NC(C)C	-1.1	-2.3	-9%	1.3	0.69	/	-1.5
6	COc1cccc(SCc2noc(C(=O)NCCC(C)C)c2C(=O)NCCC(C)C)c1	1.7	-1.0	/	-23	0.8	/	/
7	O=C(O)C1Cc2ccccc2CN1S(=O)(=O)/C=C/c1ccccc1 (stereo not drawn)	-3.6	-2.6	2%	3.5	0.72	i	-5.7
8	COc1ccc(C(=O)C(C)C(C)=O)c(OCc2ccccc2)c1OC (stereo not drawn)	/	-2.1	-10%	/	/	i	-1.0
9	CONc1nc(NC(C)(C)C)nc(OCC#N)n1	-2.0	2.1	0%	1.6	0.66	i	-2.9
10	Cc1ccc(NC2=NCCCCC2)cc1	1.0	0.1	1%	2.4	0.71	/	/
11	O=C(c1cc(-c2ccccc2)nn1-c1ccccc1)N1CCN(S(=O)(=O)c2cccc(F)c2)CC1	0.1	-4.0	-1%	2.0	0.67	i	-14
12	Cc1ccsc1C(C(=O)NCc1ccccc1)N(C(=O)c1csnn1)c1ccccc1 (stereo not drawn)	-0.7	3.9	9%	1.7	0.73	i	1.2
13	c1ccc(C(c2ccccc2)c2noc(CN3CCN(CC4CC4)CC3)n2)cc1	-1.2	-1.6	/	2.0	0.73	i	3.1
14	CN(C)C(=O)C[C@@H]1CC[C@@H](NC(=O)C2CCC2)[C@@H](CO)O1	/	1.1	/	/	/	i	1.6&-3.9
15	COC(=O)c1cc(NS(=O)(=O)c2ccc(F)cc2)ccc1N1CCOCC1	-1.8	0.8	0%	3.4	0.64	i	/
16	Cc1ccc(NC(=O)Cn2c(O)c(N=NS(=O)(=O)c3ccc(C)cc3)c3ccccc32)cc1	0.4	-1.3	6%	5.3	/	i	-4.5
17	S=c1[nH]nc(CSc2nc3ccccc3s2)o1	-0.8	1.2	18%	1.9	0.7	/	/
18	Nc1ccccc1-c1nc2ccccc2[nH]c1=O	-1.0	3.4	-7%	6.1	0.68	i	-1.4
19	O=C(COn1nnc2ccccc21)NCC1CCCCC1	1.7	3.5	8%	-1.2	0.73	/	/
20	O=C(CCS(=O)(=O)c1ccccc1)N(CCCN1CCOCC1)c1nc2ccccc2s1	6.2	-0.1	-4%	0.1	0.71	/	-1.2
21	COc1ccc(C2c3c(n[nH]c3C)CC(C)(O)C2C(C)=O)cc1OC (stereo not drawn)	?	0.0	-2%	2.6	0.69	/	-0.6
22	C=CCOc1ccccc1C1NC(=O)NC(C)=C1C(=O)NCc1ccccc1 (stereo not drawn)	-0.9	0.9	1%	-2.3	0.65	/	/
23	COc1ccc(CC(=O)Nc2cccc(-c3cn4ccccc4n3)c2)cc1	3.5	1.8	-5%	-15	0.61	i	-11
24	CSCCOC(=O)COc1ccc(/C=N/NC(=O)c2c(Cl)cnn2C)cc1	2.4	1.0	/	/	/	i	/
25	COc1ccc(S(=O)(=O)NCC2CCCO2)cc1NC(=O)c1ccc(Cl)cc1 (stereo not drawn)	5.4	-0.7	-3%	0.6	0.66	/	-2.8
26	O=C1C=CC(=O)C(C2=C3C(=O)N(CCc4ccccc4)CC(=O)N3CCC2)=C1	4.6	/	?	3.8	0.68	i	2.9
27	CCCCN(C(=O)c1c(C)noc1C)c1c(N)n(CCC)c(=O)[nH]c1=O	/	-0.2	-17%	3.2	0.71	i	0.5
28	COc1cccc(C(=O)Nc2ccccc2N2CCN(C(=O)c3ccccc3)CC2)c1	/	2.1	/	-2.3	0.7	i	1.5
29	COc1ccc(-n2ncc3c(NCC4CCCO4)ncnc32)cc1 (stereo not drawn)	1.7	-0.8	-2%	0.2	0.65	/	/
30	O=C(Nc1ccc(F)cc1)c1cc(-c2ccccn2)nc2c(Cl)cccc12	2.0	7.3	/	-6.8	0.72	i	-1.2
31	CC(C)CNS(=O)(=O)c1cc(C(=O)OC2CCOC2=O)c(Cl)cc1Cl (stereo not drawn)	-0.8	-1.7	/	2.0	0.71	i	0.0
32	Clc1ccc(/C=N/Nc2nn[nH]n2)cc1	1.7	0.3	-3%	/	/	/	/
33	N#Cc1ccc(OCc2nnc(-c3ccc([N+](=O)[O-])cc3)o2)cc1	?	5.6	-2%	1.0	0.67	i	-1.8
34	O=C(COC(=O)Cn1cnc2ccccc2c1=O)NCCC1=CCCCC1	1.4	0.8	/	-4.3	0.73	i	-9.4
35	O=C(Oc1ccc2c(c1)OCO2)c1ccncc1	?	0.8	-4%	1.9	0.74	i	-34
36	O=C(COc1ccccc1)N1CCCC1	-1.5	1.4	-2%	4.6	0.72	i	-0.2
37	N=C1/C(=C\c2ccc(-c3ccc(C(=O)O)cc3)o2)C(=O)N=C2SC=C(c3ccccc3)N12	-4.8	-40	?	9.3	0.68	i	-4.3
38	COc1ccc(C2NC(=S)NC(C)=C2C(=O)Nc2ccccn2)cc1OC (stereo not drawn)	?	0.2	/	6.9	0.69	/	/
39	Nc1nc(CN2CCN(C(=O)c3ccco3)CC2)nc(Nc2cccc(Cl)c2)n1	/	2.4	15%	-0.7	0.69	i	2.6
40	CCCC1C(=O)Nc2ccccc2N1C(=O)c1cccc(C)c1 (stereo not drawn)	-2.6	-1.9	7%	2.8	0.69	i	-0.8
41	COc1ccc(S(=O)(=O)N2CCOC2CNC(=O)C(=O)NCc2ccccn2)cc1 (stereo not drawn)	1.4	-2.2	39%	-1.9	0.75	i	0.6
42	COc1ccccc1S(=O)(=O)Cc1ccc(C(=O)N2CCCC2)o1	2.6	2.3	19%	3.3	0.68	i	-1.4
43	O=C(Cc1ccccc1)NCCC1=CCCCC1	0.1	1.1	9%	1.3	0.68	i	-0.4
44	CC1CN(C(=O)CCNS(=O)(=O)c2ccc(Br)cc2)CC(C)O1 (stereo not drawn)	0.4	2.0	8%	-1.1	0.71	/	-0.3
45	OC[C@H]1O[C@@H](n2cnc3c(NC4CCCC4)ncnc32)[C@H](O)[C@@H]1O	-1.6	3.9	?	-1.2	/	i	1.0
46	O=C(CCN1CCN(c2ccccc2F)CC1)c1ccc(Br)cc1	0.9	1.2	3%	1.6	0.72	/	/
47	CCOC(=O)c1nc(N)sc1C(=O)OCC	2.0	-1.2	7%	2.1	0.7	/	/
48	Cc1nc(-c2c(C(F)(F)F)noc2-c2ccc(O)cc2O)cs1	1.4	-0.9	5%	2.8	0.7	i	6.9
49	CN(C)S(=O)(=O)c1ccc(C(=O)OCc2nnc(-c3ccccc3)o2)cc1	5.6	8.1	-7%	4.3	0.72	i	-1.3
50	COc1cc(C)ccc1OCc1cc(C(=O)NCCN2CCCC(O)C2)no1 (stereo not drawn)	2.3	3.3	4%	1.2	0.71	i	1.0
51	COC(=O)c1c(C)n(-c2ccc(OC)cc2)c2ccc(O)cc12	1.1	2.2	8%	3.4	0.75	/	/
52	CCN1CCN(C(=O)Cn2ncc3c2-c2ccccc2OC3)CC1	-1.0	-1.2	-2%	2.9	0.77	i	3.1
53	CCc1cc2c(NCCO)ncnc2s1	2.3	-1.5	-3%	-15	0.72	/	/
54	Cc1ccc(C(=O)O)cc1NCc1cccnc1	/	-2.3	3%	/	/	i	-1.9
55	O=C1OC[C@H](Cc2ccc3c(c2)OCO3)/C1=C\c1ccc2c(c1)OCO2	4.8	0.7	/	4.6	0.69	/	/
56	S=C(NC1CCCCC1)N1CCN(C2CCCCC2)CC1	1.0	-8.5	5%	-0.3	0.72	i	-1.6
57	NS(=O)(=O)c1ccc(CNC(=O)/C=C/c2ccccc2[N+](=O)[O-])cc1	-0.1	1.5	5%	1.6	0.63	i	0.8
58	O=C(CSc1nnc(-c2ccc(S(=O)(=O)N3CCCC3)cc2)o1)NCc1ccco1	8.1	-3.3	7%	3.8	0.72	/	/
59	COC(=O)C(CC(C)C)NC(=O)CNC(=O)c1ccccc1C (stereo not drawn)	4.6	4.7	29%	2.0	0.76	/	/
60	Fc1ccc(C2CC(c3ccccc3)Nc3ncnn32)cc1 (stereo not drawn)	-1.1	1.4	1%	2.7	0.66	i	4.0

# Next structures follow:
item	SMILES	RanGTP-Imp inh	HNF4A DNA FP	Vif A3G	UCH37 DUB inh	Ecoli growth	FGF22 binding	AF4-AF9 inh
61	CC1CCC(NC(=S)NCCN(C)C)CC1 (stereo not drawn)	2.5	0.1	-4%	2.3	0.65	i	-1.7
62	CC(C)CN1CCC(=O)N([C@H](CO)c2ccccc2)CC1	2.7	/	/	2.9	/	i	-2.9
63	COc1ccc(-c2cncnc2-c2ccc(OC)cc2O)cc1	-2.6	-0.8	-6%	-1.6	0.69	i	7.0
64	CCOc1ccc(CCN2C(=O)C(=O)N([C@@H](Cc3ccc(O)cc3)CN3CCC[C@H]3CN3C(=O)C(=O)NC[C@@H]3CC(C)C)C[C@@H]2Cc2ccccc2)cc1	/	0.8	/	/	/	i	-2.7
65	COC(=O)c1ccc(NC(=O)C[n+]2ccccc2)cc1	0.5	3.9	-10%	2.6	0.69	i	-1.4
66	CCOc1ccc(NC(=O)CSc2nnnn2CC(=O)O)cc1	2.0	-2.2	19%	-1.1	0.71	/	/
67	CC1Cc2ccccc2N1C(=O)Cn1cnc2ccccc2c1=O (stereo not drawn)	4.5	1.8	-5%	-0.1	0.72	/	/
68	COc1ccc(C2CC(c3ccccc3)=NN2C(=O)c2ccc(F)cc2)cc1 (stereo not drawn)	-1.4	-1.1	-4%	3.2	0.69	i	2.1
69	Cc1cccc(NC2SC(=O)N(c3ccccc3)C2=O)c1 (stereo not drawn)	2.8	1.5	?	0.7	0.69	/	/
70	CC1CCCN(c2ccc(C(=O)Nc3nnc(C4CC4)s3)cc2[N+](=O)[O-])C1 (stereo not drawn)	0.9	-0.2	-5%	1.0	0.73	i	-1.4
71	CC(=O)Nc1ccc2c(c1)Cc1c-2cc(Cl)c(NC(C)=O)c1Cl	/	-1.7	0%	2.5	0.68	i	-2.4
72	COC(=O)c1ccccc1OCC(=O)N1CCN(c2ccc(F)cc2)CC1	2.8	2.0	1%	3.5	0.7	/	/
73	CCOC(=O)c1cccc(NC(=O)c2cc(C)nn2-c2ccccc2)c1	-2.1	1.7	-3%	2.6	0.65	i	-1.3
74	O=C(NCc1nc2ccccc2[nH]1)C1=C[C@H](c2ccccc2)C[C@H](OCCCCO)O1	7.5	1.7	13%	1.5	/	i	-0.9&1.0
75	COC(=O)c1ccc2nc(-c3ccc(S(C)(=O)=O)cc3)cn2c1	2.4	5.7	-4%	-184	0.7	i	-0.4

# Complete entries, looked up by structure. Order of screens: RanGTP-Imp inh | HNF4A DNA FP | Vif A3G | UCH37 DUB inh | Ecoli growth | FGF22 binding | AF4-AF9 inh
# Record of COc1ccc(C2CC(c3ccccc3)=NN2C(=O)c2ccc(F)cc2)cc1 (stereo not drawn) = -1.4 | -1.1 | -4% | 3.2 | 0.69 | i | 2.1
# Record of CC1CCCN(c2ccc(C(=O)Nc3nnc(C4CC4)s3)cc2[N+](=O)[O-])C1 (stereo not drawn) = 0.9 | -0.2 | -5% | 1.0 | 0.73 | i | -1.4

# Screening results: PubChem BioAssay, several laboratories
